Tg IFNy HTS = inhibitors of Toxoplasma gondii growth with IFN-gamma | Toxoplasma gondii growth in IFN-gamma-treated host cells; stronger effect = lower value; reference of the scale not given here | activity change, negative = inhibition, %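 (about 20 µM by stock and volumes)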 | 3.8% of 69,000 active;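 active = below -70%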;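 also: host cells are HeLa cells infected with Toxoplasma gondii; parasite growth read as luciferase light; one replicate is shown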
Starred values were filed as active, the others as inactive; i = inactive; & = joins results of further samples. This is a subset; the hit share may differ from the screen's.

SMILES | Tg IFNy HTS
CN(C)CCN1CCO[C@@H]2CN(Cc3ccsc3)C[C@@H]21 | -46
Cc1nc2cc(C(=O)NCCOC(C)C)ccc2n1C | 240
Cc1cc(-c2ccc(N=Nc3ccc4c(S(=O)(=O)O)cc(S(=O)(=O)O)c(N)c4c3O)c(C)c2)ccc1N=Nc1ccc2c(S(=O)(=O)O)cc(S(=O)(=O)O)c(N)c2c1O | -35
Cc1oc(-c2ccccc2)nc1Cn1nnc(C(=O)Nc2ccccc2)c1C | -64
N#Cc1c(Cl)cccc1NC1CCSC1 (stereo not given) | -28
O=C(Nc1ccc(Cl)cc1)c1csnn1 | 28
COc1ccc(S(=O)(=O)N2CCC(c3n[nH]c(=O)cc3-c3cc(C)no3)CC2)cc1 | -21
Cc1ccc(S(=O)(=O)N2CCCC(c3ncc4c(n3)CCN(C)C4)C2)cc1 (stereo not given) | 2
CCOC1C2CCC1N(C(=O)CS(C)(=O)=O)CCO2 (stereo not given) | 21
COc1cccc2cc(-c3nc4sc(C(=O)Nc5ccc(F)cc5F)c(C)c4c(=O)[nH]3)c(=O)oc12 | 4
CC(C)N1CCN(C(=O)c2ccc(-n3cnnn3)cc2)CC1C (stereo not given) | -9
CN1CCCC1CCn1cnc(-c2ccccc2)c1-c1ccccc1C(=O)O (stereo not given) | -4
COc1ccc(-c2nc(C)c(CCNS(=O)(=O)c3ccc(Oc4ccccc4)cc3)s2)cc1 | 99
CCS(=O)(=O)N[C@@H]1CC[C@@H](CC(=O)N2CCCCC2)O[C@@H]1CO | -35
CC(C)OC(=O)CSc1nnc(-c2ccc(O)cc2)o1 | -64
C=CCN(Cc1cccc(OC)c1)C(=O)c1cc(-c2cnn(C)c2C)n[nH]1 | 6
O=C1CC(c2cn(Cc3ccccc3)c3ccccc23)C(=O)N1c1ccccc1 (stereo not given) | 25
CCOC(=O)c1nn(CCc2scnc2C)c2c1CN(C(=O)CCc1cccs1)CC2 | -1
Cn1cc(-c2ccncc2)c(-c2ccc(CNC(=O)COCC3CCCCO3)cc2)n1 (stereo not given) | -92*
CC(C)Oc1cccc(-c2nc3c(c(=O)[nH]c(=O)n3C)n2C)c1 | -10
O=C(Nc1ccc(Cl)cc1)N1C[C@@H]2[C@H](c3ccccc31)[C@@H](CO)N2CC1CCCCC1 | 1
CN(C)c1nc(NC(C)(C)C)nc(NC(C)(C)C)n1 | -5
CCC(=O)N1C[C@@H](O)COC[C@@H]2O[C@@H](CC(=O)NCc3ccc(Oc4ccccc4)cc3)CC[C@H]21 | 10
CN(Cc1ccncn1)C(=O)c1cnn(Cc2ccccc2)c1 | 1
CCN1c2ccccc2C(=O)NC12CCN(C(=O)c1cccc(OC)c1)CC2 | 71
c1ccc2sc(N3CCN(Cc4ccc5c(c4)OCO5)CC3)nc2c1 | 21&14
Cc1ncnc2c1CCN(C1CCOCC1)CC2 | 9
O=C1C[C@H]2[C@H](CO)[C@@H](OC(=O)c3ccc(-c4ccccc4)cc3)C[C@H]2O1 | 90
CN(C)CCN(Cc1ccsc1)C(=O)[C@@H]1C[C@H]1c1ccccc1 | 2
Cc1nc(OCC(=O)Nc2ccc(Cl)cc2F)c2ccccc2n1 | -11
C[C@@H]1CN([C@@H](C)CO)C(=O)c2cc(NS(=O)(=O)c3cn(C)cn3)ccc2O[C@@H](C)CCCCO[C@@H]1CN(C)Cc1ccc2c(c1)OCO2 | i
CCn1ccnc1CN(C)c1ccc(-c2ccccc2OC)nn1 | -49
Cc1cnc(N2CCC(O)(c3ccccc3)CC2)nc1N(C)C | -8
O=C(NCCn1nnn(-c2cccs2)c1=O)c1cnccn1 | -1
O=S(=O)(c1ccccc1)N1CCCCN2[C@H](C1)[C@H](c1ccc(C#CC3CCCC3)cc1)[C@@H]2CO | -57
Cn1cc(C(=O)N2C[C@@H]3COC[C@@]3(COc3ccc(C#N)cn3)C2)cn1 | -14
COCC1(C(=O)NCCn2c(C)cc3ccccc32)CCC1 | 12
Cc1nc(-n2cnnc2)ccc1-c1ccc2c(c1)OCO2 | -97*
Cc1cc(C)cc(NC(=O)c2nnn(Cc3nc(-c4cccc(Cl)c4)oc3C)c2C)c1 | -25
O=C(NCCc1cccs1)c1nc(Nc2ccc(F)cc2)c2ccccc2n1 | -63
Cc1ccc(NC(=O)C(=O)NCCc2sc(-c3ccc(Cl)cc3)nc2C)cc1F | 263
CC(C)c1noc(-c2cc(=O)n(CC(=O)Nc3ccc(N(C)C)cc3)c3ccccc23)n1 | 98
CCCN(C/C=C/c1ccccc1)C(=O)c1c[nH]c2ccc(OC)cc2c1=O | 23
O=C(Cn1cnnn1)N1CCc2nnc(CCc3ccccc3)n2CC1 | 8
COc1ccc2c(C)nc(N3CCCC(C(=O)NCCc4cccc(F)c4)C3)nc2c1 (stereo not given) | 2
COCC(=O)Nc1ccc2c(c1)C(=O)N(C)C[C@@H](OC)[C@@H](C)CN(CCc1ccccc1)[C@@H](C)CO2 | -6
COc1ccc(S(=O)(=O)NCC2CCCN(Cc3ccc(-c4ccco4)cc3)C2)cc1 (stereo not given) | -58
CCn1ncc(-c2ccc3c(c2)OCCO3)c1C(=O)OC | 7
CC(C)Cc1ccc(CN2CCC(NS(C)(=O)=O)CC2)cc1 | 6
COc1cccc(CNC(=O)c2nnn(Cc3nc(-c4ccc(C)cc4)oc3C)c2C)c1 | -96*
Nc1ccc(Sc2ccc3ccccc3c2Cl)c(Cl)c1 | 16
O=C1NCCc2[nH]c(-c3ccncc3)cc21 | -86*
CCCc1nc(C(=O)NCCC2CN(C)CCO2)cs1 (stereo not given) | -17
Cc1ccc(-c2nc(C(N)=O)c3[nH]c(=O)n(Cc4ccccc4)c3n2)s1 | -8
CCN(CC)C(=O)CC1CC2(CCN(C(=O)C3CCOCC3)CC2)Oc2ccccc21 (stereo not given) | 158
COc1ccc2c3c(n(C)c2c1)[C@H](CO)N(Cc1nccs1)CC31CCN(C(=O)CN(C)C)CC1 | 63
NC(=O)N1Cc2[nH]nc(COc3cccnc3)c2C1 | 36
CN(C(=O)c1c(O)cccc1O)C1CCCc2ccccc21 (stereo not given) | 15
Cc1ccc(-c2noc(-c3c(O)c4ccccc4[nH]c3=O)n2)cc1 | 58
Cc1ccc(-c2nc(CCNC(=O)C(=O)Nc3ccc(C)c(C)c3)cs2)cc1 | 70

Later entries
structure | Tg IFNy HTS
O=C(CCCc1c[nH]c2ccccc12)N1CCn2cc(C(F)(F)F)nc2C1 | -5
COc1ccc(-n2ncc3c(Nc4cccc(C)c4)ncnc32)cc1 | 56
CC(C)(C)C(=O)NCCc1csc(-c2ccc(C(F)(F)F)cc2)n1 | 179
CC(=O)c1ccccc1NC(C#N)c1ccccc1 (stereo not given) | 74
COc1ccc([C@@H]2CC=CC[C@@H](C)Oc3ccccc3C(=O)N(C)[C@@H](C(C)C)C(=O)N2)c(OC)c1 (mixture of isomers) | -31
CS(=O)(=O)N1[C@@H](CO)[C@@H](c2ccccc2)C12CN(C(=O)c1ccccc1F)C2 | 24
Cc1cc(C)n(Cc2nc(-c3ccc(NC(=O)c4ccc(F)c(Cl)c4)cc3)oc2C)n1 | 308
C[C@@H]1CN([C@@H](C)CO)C(=O)c2cc(NS(=O)(=O)c3ccc(F)cc3)ccc2O[C@@H]1CN(C)C(=O)Nc1ccccc1 | -5
CC(C)N1CCc2c(nc(C(=O)NCc3ccccc3)n2C)C1 | -5
CCC(=O)Nc1ccc(OC)c(OC)c1 | 70
CCn1c(C2CCN(C(=O)Cn3cnc4ccccc43)CC2)nn(C)c1=O | -3
COc1ccc(-c2sc(C(=O)O)cc2C)cc1 | 20
COCc1cc(=O)[nH]c(-c2ccc(C(F)(F)F)cn2)n1 | 107
CN1CCC2(CC1)CN(Cc1cccn1-c1ncccn1)CCCN2C | 2
COc1ccccc1Oc1c(NS(=O)(=O)c2ccc(C)cn2)nc(-c2ccncc2)nc1OC | 29
COc1ccc(NC(=O)C(=O)NCCc2csc(-c3ccc(Cl)cc3)n2)cc1OC | -17
O=C(NCc1ccc(Cl)cc1)c1c(O)c2ccccc2n(-c2ccccc2)c1=O | -124*
CC(=O)Nc1ccc(Nc2nc(-c3nnc(-c4ccc(F)cc4)o3)nc3ccccc23)cc1 | 56
COc1ccc(OC)c(S(=O)(=O)N(C)Cc2nc(-c3ccccc3C)oc2C)c1 | 8
CC(Oc1ccccc1)c1nnc(SCC(=O)N2CCc3ccccc32)n1C (stereo not given) | 17
Cc1oc(-c2cccc(Cl)c2)nc1CSc1nc2c(=O)[nH]cnc2n1-c1ccccc1 | -84*
Cc1ccc(-c2nc(CN3CCN(C(=O)Nc4ccccc4C(F)(F)F)CC3)c(C)o2)cc1 | -16
Cc1c(Br)cc2nsnc2c1C | -66
CO[C@@H]1CCN(S(=O)(=O)c2ccccc2)[C@H]1Cc1cnn(C)c1 | 3
COc1ccc(-c2nc(Cn3nnc(-c4nc(-c5ccc(OC)c(OC)c5)no4)c3C)c(C)o2)cc1 | 10
CN1CCCC(CC2c3ccccc3Sc3ccccc32)C1 (stereo not given) | -11
Cc1nnc(SCc2nnc(-c3ccccc3)o2)o1 | 22
CC1(C)NC(=O)N(CCCC(=O)O)C1=O | 34
COc1ccc(-c2nccn2CCc2nc(C)cc(=O)[nH]2)c(OC)c1 | 15
C[C@@H]1CCCCO[C@@H](CN(C)Cc2ccc(C(=O)Nc3ccccc3N)cc2)[C@@H](C)CN([C@H](C)CO)C(=O)c2cc(NC(=O)CCC(F)(F)F)ccc2O1 | 462
O=C(CCC1N=C2c3ccccc3N=C(SCc3cccc(F)c3)N2C1=O)NCCc1ccccc1 (stereo not given) | 3
Cc1cc(C(=O)N2C[C@H]3C[C@@H]4[C@@](C2)(CN(CC(C)C)S4(=O)=O)O3)no1 | 3
Cn1nc2n(c1=O)-c1ccccc1SC2 | 40
Cc1ccc(F)cc1-n1c(-c2ccn[nH]2)n[nH]c1=O | 8
O=C(Nc1cccnc1)c1ccnn1-c1ccc2ccc(-c3cccnc3)cn12 | -1
COc1cccc(F)c1-c1ccc2ncnc(NCCO)c2c1 | -49
CN1CCC2(CCCN(C(=O)C3(S(=O)(=O)c4ccccc4)CC3)C2)C1 (stereo not given) | 1
CN1[C@@H](CO)[C@@H]2c3ccccc3N(C(=O)Nc3cc(F)ccc3F)C[C@@H]21 | 9
C[N+](C)(C)CC(O)CC(=O)O (stereo not given) | -6
Cc1ccc2[nH]c(=O)cc(C(=O)N3CCN(C)C4(CCN(C)CC4)C3)c2c1 | 1
C=CCN1CCN(C)C(=O)C12CCN(C(=O)c1cc(C)[nH]n1)C2 (stereo not given) | 2
CCNC(=O)c1cc2c(c(-c3cccc(Br)c3)n1)[C@H](CCO)NC2 | -48
CC(C)CCCC1CN(C(=O)c2snnc2C(C)C)CCO1 (stereo not given) | -9
COCCN(Cc1ccc2c(c1)CCCN2C)S(=O)(=O)c1ccc2[nH]c(=O)ccc2c1 | 8
CCN(CC)S(=O)(=O)N1CCCC1c1cc(C(F)(F)F)c2c(N)[nH]nc2n1 (stereo not given) | -15
COCc1cncc2c1CCN(S(=O)(=O)c1cccc(F)c1)C2 | -5
Cc1nc(C)c(Oc2ccc(Cl)cc2Cl)c(Sc2cccc(C(F)(F)F)c2)n1 | -107*
COc1ccc(/C=C/c2nc3ccccc3s2)cc1 | 28
CO[C@H]1CN(C)C(=O)c2ccc(NC(=O)c3ccno3)cc2OC[C@@H](C)N(S(C)(=O)=O)C[C@@H]1C | 93
COCCN1CCn2c(nc3cc(NC(=O)c4ccc(F)cc4)ccc32)C1 | 31
CC1(C)CC(=O)c2cc(NC(=O)c3ccc(Cl)cc3)c(=O)oc2C1 | 32
Cc1ccc(C2(O)CCN(C(=O)CCn3cnnn3)CC2)nc1 | -4
COc1ccccc1-c1noc(C2CCCN2C(=O)c2sc(C)nc2C)n1 (stereo not given) | -35
CCN(C)c1ncnc2c1CCN(CC1CCOC1)CC2 (stereo not given) | -17
Nc1nc(-c2ccc3c(c2)CCO3)cs1 | 18
Cc1c(-c2ccc(Cl)cc2)n[nH]c1C(=O)N1CCCC(O)(CN(C)C)C1 (stereo not given) | -5

(further entries)
structure | Tg IFNy HTS
CO[C@H]1CN(C)C(=O)c2cc(NC(C)=O)ccc2OC[C@@H](C)N(Cc2ccncc2)C[C@@H]1C | 87
COc1ccc(CN2C(=O)N(CC(C)C)C3(CCN(CCC(C)c4ccc(C)o4)CC3)C2=O)cc1 (stereo not given) | -10
Cc1cc(C)c2cc(C(=O)NCCc3ccccc3)[nH]c2c1 | -44
Clc1ccc(OCc2nnsc2Cl)c(Cl)c1 | -23
OCCNc1cc(-c2ncccn2)c2cc[nH]c2n1 | 4
COc1ccc(-c2nc(C)c(CCNC(=O)C(=O)Nc3cc(C)ccc3C)s2)cc1OC | -69
CCc1ccccc1NC(=O)N1CCn2nnc(COc3cccnc3)c2C1 | -5
Cc1nc(SCc2nc(C(c3ccccc3)c3ccccc3)no2)[nH]c(=O)c1C | -95*

Source: PubChem
